StopGo RLuc – Primary qHTS Assay for Foot and Mouth Disease Virus Antivirals against NCGC Sytravon and CBC Compound Libraries: Renilla Luciferase Signal; HEK cells with a luciferase reporter of 2A StopGo recoding; 120,000 tested, 0.32% active; AID 1745857, 2022; Potency, µM (series often up to 57.5 µM), for inactives: top-dose signal change, negative = less light; active means well fitted falling curve with a large enough effect; inconclusive means small, poorly fitted or top-dose-only effect; inactive means no such curve, though single readings can be large or run the other way; note: nearly all actives have a fitted effect of over 55% in size; overnight with compound
2A firefly – Primary qHTS Assay for Foot and Mouth Disease Virus Antivirals against NCGC Sytravon and CBC Compound Libraries: Firefly Luciferase Signal | 120,000 tested, 0.23% active | AID 1745856, 2022 | HEK cells with a luciferase reporter of 2A StopGo recoding | Potency, µM (highest dose often 57.5 µM), for the others: at the highest dose signal change, negative = less light; active = well fitted falling curve with a large enough effect; inconclusive = small, poorly fitted or top-dose-only effect; inactive = no such curve, though single readings can be large or run the other way; note: nearly all actives have a fitted effect of over 60% in size; overnight with compound
Starred values were filed as active, the others as inactive; ? = inconclusive; [ ] = another dose, or the depositor's remark. % is set by controls: 0 for no effect and ±100 for the full control effect; potency is the fitted concentration of half-maximal effect.

Start of the data: the first three compounds as a preview:
Sequence of screens – StopGo RLuc, 2A firefly
- CC1=CC(C)C(C2OCC3(CO2)C(C)C=C(C)CC3C)C(C)C1 (stereo not given)
    4%, 7%
- COc1ccccc1C(=O)Oc1ccc(F)cc1C(=O)/C=C/c1ccc(Cl)cc1
    20%, 0%
- Cc1ccc(/C=C/C(=O)NCc2ccco2)cc1
    63%[activator], 77%[activator]

All compounds of this part, from the first entry:
Sequence of screens – StopGo RLuc, 2A firefly
- CC1=CC(C)C(C2OCC3(CO2)C(C)C=C(C)CC3C)C(C)C1 (stereo not given)
    4%, 7%
- COc1ccccc1C(=O)Oc1ccc(F)cc1C(=O)/C=C/c1ccc(Cl)cc1
    20%, 0%
- Cc1ccc(/C=C/C(=O)NCc2ccco2)cc1
    63%[activator], 77%[activator]
- COc1ccc(S(=O)(=O)Nc2nc3ccccc3nc2NCc2ccccc2OC)cc1
    95%[activator], 24%
- O=C(CS(=O)(=O)c1cccc2nsnc12)NCc1ccccc1Cl
    -2%, -9%
- CCOC(=O)C1CCN(c2c(C(=O)c3ccc(C)cc3)cnc3ccc(F)cc23)CC1
    -9%, -14%
- Cc1ccc2oc(C(=O)NCCc3ccc(S(N)(=O)=O)cc3)cc(=O)c2c1
    -1%, -8%
- COc1ccc(OCC(=O)Nc2cc(-c3nc4ccc(C)cc4o3)ccc2C)cc1
    6%, 105%[activator]
- CC(C)OCCCNC(=O)CSc1c2c(nc3ccc(Cl)cc13)CCCC2
    11%, -2%
- COc1ccc(-n2c(SCC(=O)Nc3cc(Cl)ccc3OC)nc3c(c2=O)SCC3)cc1
    -3%, -3%
- Fc1ccc(-c2ccc(CNCCSc3nnnn3-c3ccccc3)o2)cc1Cl
    17%, 19%
- COc1ccc(-c2nc3n(n2)C(c2cccc(C)c2)C(C(N)=O)=C(C)N3)cc1OC (stereo not given)
    -5%, -11%
- CC1CCC(NC(=O)c2ccc3c(c2)N(Cc2cccc(Cl)c2)C(=O)c2ccccc2S3=O)CC1 (stereo not given)
    -6%, 52%[activator]
- COC(=O)C1=C(C)N(C(C)C)C(=O)C1(NC(=O)c1ccc(C(C)(C)C)cc1)C(F)(F)F (stereo not given)
    -7%, -14%
- CSc1ccc(CCNC(=O)Cn2ncc3c(=O)oc4ccccc4c32)cc1
    -10%, -9%
- C1CCC(CNCCN2CCNCC2)CC1
    -2%, 6%
- COC(=O)c1ccc(C(=O)OC)c(NC(=O)c2ccc(-c3ccccc3)s2)c1
    -4%, -9%
- Cc1cccc(C)c1NC(=O)CN1CCC(C(=O)N2CCCCCC2)CC1
    -4%, -9%
- Cc1ccc(-c2cnn3c(N4CCN(CCO)CC4)cc(C)nc23)cc1
    -1%, 132%[activator]
- CCc1noc2ncnc(N3CCCC(C(=O)NCCc4ccc(SC)cc4)C3)c12 (stereo not given)
    -13%, -10%
- Cc1cccc(OCC(=O)NC(CC(C)C)C(=O)N(C)C)c1 (stereo not given)
    -4%, -5%
- COc1ccc(C2CC(=O)Oc3c2c(=O)n(C)c2ccccc32)c(OC)c1 (stereo not given)
    9%, 18%
- Cc1cc(C)c2oc(=O)cc(CN3CCN(CCc4ccncc4)CC3)c2c1
    -15%, -20%
- O=C(Nc1ccc(C(F)(F)F)cc1)C(Cc1ccccc1)n1cccc1 (stereo not given)
    -3%, 19%
- O=C(Nc1ccc(C(=O)N2CCN(c3ccc(Cl)cc3)CC2)cc1)c1nsc2ccccc12
    6%, ?
- COc1ccc2c(C(F)(F)F)cc(SCC(=O)N3CCCC3)nc2c1
    -1%, -2%
- Cc1cccc(OCC(=O)Nc2nnc(S(=O)(=O)N3CCc4ccccc43)s2)c1
    2%, -7%
- COc1ccc(NC(=O)C2CCN(c3ccc(Sc4ccc(C)cc4)nn3)CC2)c(OC)c1
    -1%, -8%
- Cc1cccc(C(C)C)c1NC(=O)CCc1ncc(-c2ccc(F)cc2F)o1
    5%, 34%[activator]
- CC(C)c1cnc2c(c1SCC(=O)Nc1cccc([N+](=O)[O-])c1)c(=O)n(C)c(=O)n2C
    43%[activator], -11%
- CCCOc1ccc(C(=O)N(Cc2ccc(C(C)C)cc2)C2CCS(=O)(=O)C2)cc1 (stereo not given)
    10%, 37%
- CCCCn1nc(C(=O)Nc2ccc3nc(SC)sc3c2)c2ccccc2c1=O
    -12%, 4%
- CN(Cc1ccccc1)C(=O)OCc1cn(Cc2ccccc2)nn1
    32%[activator], 0%
- COc1ccc(NC(=O)COC(=O)c2nn(C)c(=O)c3ccccc23)cc1
    -5%, 8%
- COc1cccc(NC(=O)C2CCN(c3nn4cc(-c5ccc(F)cc5)nc4s3)CC2)c1
    -7%, 94%[activator]
- NCc1cnccn1
    11%, 16%
- COc1cccc(C2c3c(-c4c(C)cc(C)cc4O)n[nH]c3C(=O)N2CCCO)c1 (stereo not given)
    7%, 15%
- Cc1ccc(S(=O)(=O)Oc2ccc(C3C4=C(CC(C)(C)CC4=O)OC4=C3C(=O)CC(C)(C)C4)cc2)cc1
    10%, 0%
- COc1ccc(-c2nc3sc(CCNC(=O)c4ccco4)c(C)n3n2)cc1
    3%, 332%[activator]
- CN(Cc1ccccc1)c1nc2c(S(=O)(=O)c3ccccc3)nnn2c2ccsc12
    -6%, -22%
- COc1ccc(CCNC(=O)Cn2c(=O)n(-c3ccc(OC)c(OC)c3)c(=O)c3ccccc32)cc1OC
    1%, -1%
- Cc1ccc(N(CC(=O)NC(C)c2ccccc2)S(=O)(=O)c2c(C)noc2C)cc1 (stereo not given)
    -7%, 3%
- COc1ccc(-c2nc(CSCC(=O)N3CCc4ccccc43)c(C)o2)cc1OC
    -8%, -10%
- O=C1Nc2c(c(=O)[nH]c(=O)n2-c2ccccc2)C1(NS(=O)(=O)c1ccc(Cl)cc1)C(F)(F)F (stereo not given)
    -9%, -9%
- N#Cc1cc([N+](=O)[O-])ccc1NC(=O)COC(=O)C1(c2ccc(F)cc2)CCCC1
    10%, 5%
- Cc1c(CC(=O)NCCN2CCOCC2)c(=O)oc2c(C)c(O)ccc12
    4%, 7%
- CCOc1ccc2oc(=O)cc(CN3CCN(c4ccc(OC)cc4)CC3)c2c1
    -17%, -20%
- CCOc1cc(/C=C/C(=O)c2ccc(OC(F)F)cc2)cc(Cl)c1OC
    -1%[1.06 µM], 4%
- CCCn1c(-n2nc(C)cc2C)nc2c1c(=O)n(Cc1cccc3ccccc13)c(=O)n2C
    -15%, -4%
- CC(C)CCOc1cccc(N)c1
    0%, 0%
- Cc1cc(C)c(NC(=O)CC2(C(=O)O)CCCC2)c(C)c1
    10%, -1%
- CCCOc1ccc(-c2cc(C(=O)OC)c3ccccc3n2)cc1
    36%[activator], 146%[activator]
- CCN(CC(=O)Nc1ccc(NC(C)=O)cc1)C(=O)c1cc2ccccc2oc1=O
    -2%, -4%
- CCCCNc1nnc(SCc2ncc(-c3ccccc3)o2)s1
    17%, 11%
- CC(C)n1c(=N)c(C(=O)NCc2cccnc2)cc2c(=O)n3ccccc3nc21
    -10%, -9%
- O=C(c1ccccc1SCc1cn2ccccc2n1)N1CCN(c2nccs2)CC1
    -5%, 3%
- CCOc1ccccc1CN1CCc2nc(N3CCN(C)CC3)ncc2C1
    -12%, -14%
- CC(C(=O)Nc1ccccc1OC(F)F)N(C)CC(=O)Nc1ccc(F)cc1 (stereo not given)
    -7%, -10%
- CCCCOc1ccc(CNC(=O)C2CCCN(c3nnc(-n4c(C)ccc4C)s3)C2)cc1 (stereo not given)
    ?, -12%
- Cc1ccc(NC(=O)C2CCN(C(=O)c3cnn(-c4ccccc4)c3-n3cccc3)CC2)cc1
    -10%, -14%

The list goes on.
Sequence of screens – StopGo RLuc, 2A firefly
- COc1cccc(Oc2coc3cc(OC(=O)c4cccc(OC)c4)ccc3c2=O)c1
    37%[activator], 123%[activator]
- CCN(CC)c1ccc(S(=O)(=O)N(CC)CC)cc1NC(=S)Nc1cccnc1
    56%[activator], 0%
- COc1ccc2nc3oc(C(=O)N4CCN(c5cc(C)ccc5C)CC4)cc3cc2c1
    -13%, 223%[activator]
- CC(C)N(Cc1ccccc1)S(=O)(=O)c1cccc2nsnc12
    1%, -18%
- CCC(=O)c1c(O)cc(O)cc1O
    -15%, -16%
- CCOC(=O)c1cccc(NC(=O)c2cc3c(-c4cccc(OC)c4)nn(C)c3s2)c1
    -3%, -7%
- FC(F)(F)c1cccc(-n2cc(-c3ccccc3)c3c(N4CCCCC4)ncnc32)c1
    -2%, -23%
- CSCCCNC(=S)Nc1cccc(Br)c1
    -3%[1.06 µM], 19%
- COc1ccccc1N1CCN(c2cc(C)nc3nc(-c4ccc(C)cc4)nn23)CC1
    -22%, -25%
- O=C(NCC1CC2c3ccccc3C1c1ccccc12)c1cc[n+]([O-])cc1 (stereo not given)
    21%, 13%
- CCn1c(SCC(=O)Nc2cc3c(cc2C(C)=O)OCO3)nnc1C1CC1
    10%, 5%
- CN(C)c1ccc(C(CNC(=O)c2ccccc2Cl)N2CCc3ccccc32)cc1 (stereo not given)
    -5%, 27%
- O=S(=O)(NCC(c1cccs1)S(=O)(=O)c1ccccc1)c1ccc(F)cc1 (stereo not given)
    291%[activator], 5%
- Cc1cccc(Nc2nc3ccccc3nc2NS(=O)(=O)c2cccc(Cl)c2)c1
    ?, ?
- Clc1ccc(-c2nnc3ccc(SCc4ccco4)nn23)cc1
    -4%, -1%
- Cc1cc(Nc2ccc(Br)cc2)n2nc(-c3ccccc3C)nc2n1
    -14%, -12%
- CCN(CCO)C(=O)CCOc1ccccc1
    -2%, 2%
- CCN1CCc2c(sc(NC(=O)CSc3ccccc3)c2-c2nc3ccccc3s2)C1
    -6%, -6%
- Cc1csc(NC(=O)c2[nH]c3c(c2C)C(=O)CC(C)(C)C3)n1
    2%, 0%
- O=C(Nc1ccccc1Cl)c1ccc2c(Cl)c3c(nc2c1)CCCC3
    0%, 85%[activator]

Complete entries, quoted from the list. Values in the order: StopGo RLuc, 2A firefly
`Cc1csc(NC(=O)c2[nH]c3c(c2C)C(=O)CC(C)(C)C3)n1` in the list: 2%, 0%
`COc1ccccc1N1CCN(c2cc(C)nc3nc(-c4ccc(C)cc4)nn23)CC1` in the list: -22%, -25%
`CCn1c(SCC(=O)Nc2cc3c(cc2C(C)=O)OCO3)nnc1C1CC1` in the list: 10%, 5%

Following part
Sequence of screens – StopGo RLuc, 2A firefly
- CC(NC(=O)c1ccc2c(c1)CCN2S(=O)(=O)c1ccccc1)c1ccccc1 (stereo not given)
    204%[activator], -8%
- CCN1CCN(c2oc(-c3cccc(Cl)c3)nc2C#N)CC1
    11%, 30%
- O=S(=O)(c1ccccc1)N1CCC(c2ccncc2)CC1
    -14%, 0%
- COc1cccc(NC(=O)C2=C(C)C(=O)OC23CCN(C(C)=O)CC3)c1
    -14%, -1%
- CC(=O)OCC1=C(C(=O)O)N2C(=O)[C@@H](NC(=O)Cc3cccs3)[C@H]2SC1
    -4%, -12%[11.5 µM]
- Cc1nn(C)cc1-c1ccn[nH]1
    18%, 0%
- NC(=O)Cn1nc(-c2cccc([N+](=O)[O-])c2)c2ccccc2c1=O
    -18%, -8%
- Cc1ccc(-c2cc(C(=O)Nc3nncs3)c3ccccc3n2)cc1
    21%, 64%[activator]
- CC(C)C(=O)Nc1ccc2c(C(C(=O)O)N3CCN(c4cccc(Cl)c4)CC3)c[nH]c2c1 (stereo not given)
    -3%, -2%
- COc1ccccc1NC(=O)CSc1cn[nH]n1
    -11%, -6%
- COc1ccc(-c2cc(C(F)(F)F)nc(S(=O)(=O)CCC(=O)Nc3ccccc3F)n2)cc1
    4%, 8%
- CN(C)CCCNC(=O)COc1ccc(-c2nn(C)c(=O)c3ccccc23)cc1
    13%, 18%
- O=[N+]([O-])c1ccc(C(c2sc3nc(-c4ccco4)nn3c2O)N2CCC3(CC2)OCCO3)cc1 (stereo not given)
    50%[activator], -7%
- CCOc1ccccc1CNC(=O)c1cn(-c2ccc(OC)cc2)c(=O)c2ccccc12
    -20%, 14%
- Cc1ccc(/C(COc2ccc3c(C)c(Cc4ccccc4)c(=O)oc3c2C)=N\O)cc1
    ?, ?
- CC(C)=CCC/C(C)=C/COc1ccc2c(=O)c(-c3ccccc3)c(C)oc2c1
    12%, 7%
- O=C(Cc1ccccc1)Nc1sc2c(c1C(=O)Nc1ccc(Br)cc1)CCCC2
    -19%, -22%
- O=C(CCC1CCCCC1)NCC1CC2c3ccccc3C1c1ccccc12 (stereo not given)
    -4%, -4%
- CCc1cccc(C)c1NC(=O)/C=C/c1cccs1
    11%, -9%
- COC(=O)Cc1c(OC)ccc2cc(Br)ccc12
    2%, 25%
- CCOc1ccccc1NC(=O)CN1CCN(S(=O)(=O)c2ccc(Br)cc2)CC1
    -11%, -7%
- Cc1ccc(NC(=O)N2CCN(Cc3ccc(Cl)s3)CC2)cc1
    0%, 0%

Four successive records out of the list so far:
Sequence of screens – StopGo RLuc, 2A firefly
- CC(NC(=O)c1ccc2c(c1)CCN2S(=O)(=O)c1ccccc1)c1ccccc1 (stereo not given)
    204%[activator], -8%
- CCN1CCN(c2oc(-c3cccc(Cl)c3)nc2C#N)CC1
    11%, 30%
- O=S(=O)(c1ccccc1)N1CCC(c2ccncc2)CC1
    -14%, 0%
- COc1cccc(NC(=O)C2=C(C)C(=O)OC23CCN(C(C)=O)CC3)c1
    -14%, -1%

Source: PubChem BioAssay (National Center for Advancing Translational Sciences (NCATS))

An unsorted share of the library. About 0.53% of those tested had a hit in this group.
